Screening data as filed in PubChem BioAssay.
Polio RdRp inh: poliovirus RNA polymerase inhibition | poliovirus polymerase elongation, fluorescence polarization; hits give low values | % elongation, % (compound at 16.7 µg/mL) | hit rate 0.66% among 150,000; in the data active = % elongation below about 90%; note: some results filed as inactive read as strong as hits
Target sequence (P03300 1749-2209 limits assumed): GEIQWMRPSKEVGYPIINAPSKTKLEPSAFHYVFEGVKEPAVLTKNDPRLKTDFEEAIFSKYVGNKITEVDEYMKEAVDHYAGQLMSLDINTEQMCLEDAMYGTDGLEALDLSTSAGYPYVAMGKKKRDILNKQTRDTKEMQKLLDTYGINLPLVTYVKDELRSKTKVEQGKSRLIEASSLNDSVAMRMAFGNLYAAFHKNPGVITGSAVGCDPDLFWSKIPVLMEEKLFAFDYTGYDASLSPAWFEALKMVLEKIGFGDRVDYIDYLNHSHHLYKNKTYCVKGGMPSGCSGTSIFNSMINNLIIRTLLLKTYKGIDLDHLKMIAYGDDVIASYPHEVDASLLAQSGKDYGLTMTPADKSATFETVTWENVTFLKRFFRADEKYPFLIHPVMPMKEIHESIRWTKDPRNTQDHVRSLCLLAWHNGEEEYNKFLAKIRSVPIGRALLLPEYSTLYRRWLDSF
Mtb MbtI inh: blocks the Mycobacterium tuberculosis siderophore enzyme MbtI. inhibition, %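 (about 17 µg/mL by stock and volumes)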. P9WFX0. purified MbtI enzyme, fluorescence intensity read-out. hit rate 0.89% among 100,000;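 active = above 50% in both replicates, above 80% if mildly self-fluorescent; inactive = the rest, strongly fluorescent compounds included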;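 note: 0% = mean of negative and 100% = mean of positive controls; one replicate is shown; some compounds called inactive have numbers as strong as hits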
Mtb MenB inh: Mtb MenB enzyme inhibition; P9WNP5; MenB enzyme assay, absorbance read-out; some hits fall short of the stated cut; inhibition, %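 (about 12 µg/mL by stock and volumes)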; hit rate 0.43% among 100,000; AID 540299;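 active = mean of two replicates above 30%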;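 note: 0% = no compound and 100% = wells with inactive enzyme; the first replicate is given; strong numbers were not always called active; inactives centre near -10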
Target sequence (P9WNP5 whole entry, looked up): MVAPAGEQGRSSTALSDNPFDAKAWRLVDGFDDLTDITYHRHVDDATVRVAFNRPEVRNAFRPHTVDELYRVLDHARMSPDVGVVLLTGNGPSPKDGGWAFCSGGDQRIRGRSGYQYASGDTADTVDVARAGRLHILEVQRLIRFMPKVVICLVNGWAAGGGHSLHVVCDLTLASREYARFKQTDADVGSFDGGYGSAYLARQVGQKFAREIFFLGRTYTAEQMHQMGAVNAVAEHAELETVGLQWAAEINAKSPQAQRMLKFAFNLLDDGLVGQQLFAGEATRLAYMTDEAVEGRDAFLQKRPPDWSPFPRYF
Polio RdRp inh intensity: recorded beside Polio RdRp inh, whose call it bears; % elongation; measured here: total intensity read-out; formula for this scale not given here;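 total fluorescence in place of polarization; lower means less elongation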
Starred values were filed as active, the others as inactive; i = inactive; . = no result given; & = joins results of further samples. Rows are unselected. Share with any hit: about 1.9%.

No. | Structure | Polio RdRp inh | Polio RdRp inh intensity
1 | CN(C)CCOC(c1ccc(Cl)cc1)c1ccccn1 (stereo not given) | 99&99 | 99&101
2 | CCCCn1ccnc1C(=O)c1ccc(S(=O)(=O)N2CCCC2)cc1 | 99 | 103
3 | CN1C(=O)NC2NC(=O)N(C)C21 (stereo not given) | 100 | 101
4 | O=C(CCn1nc(-c2ccccc2)c2ccccc2c1=O)Nc1cccnc1 | 103 | 101
5 | O=C1CCCc2cc(S(=O)(=O)NCC3CCC(C(=O)N4CCCCCC4)CC3)ccc2N1 (stereo not given) | 104 | 98
6 | Cc1cc(C)c2c(NS(=O)(=O)c3ccc(Cl)cc3)n[nH]c2n1 | . | .
7 | O=C(CCn1c(SCc2cccc(F)c2)nc2ccccc2c1=O)NCCc1ccccc1 | 103 | 100
8 | O=C(CCCOc1ccccc1)Nc1nncs1 | 104 | 108
9 | COc1ccc2[nH]c(C)c(CCNS(=O)(=O)c3c(C)[nH]c(=O)[nH]c3=O)c2c1 | 102 | 111
10 | CCOCc1c(C(=O)N(CC)Cc2ccc3c(c2)OCCO3)oc2ccccc12 | 107 | 104
11 | CCOC(=O)C1CCN(S(=O)(=O)c2nc3nc(C)cc(C)n3n2)CC1 | 105 | 103
12 | O=C(CSc1nnc(NC(=O)C23CC4CC(CC(C4)C2)C3)s1)Nc1nccs1 | 103 | 102

No. | Mtb MbtI inh | Mtb MenB inh
1 | 5&-23 | -6&2
2 | 0 | -17
3 | 1 | 13
4 | 9 | 22
5 | -6 | -28
6 | 6 | 4
7 | -3 | 6
8 | . | -8
9 | . | -29
10 | 10 | -8
11 | . | -7
12 | 0 | -16

Grouped by structure, the compounds so far with a carbonyl joined to an NH by a bond outside any ring
No. | Structure | Polio RdRp inh | Polio RdRp inh intensity
4 | O=C(CCn1nc(-c2ccccc2)c2ccccc2c1=O)Nc1cccnc1 | 103 | 101
7 | O=C(CCn1c(SCc2cccc(F)c2)nc2ccccc2c1=O)NCCc1ccccc1 | 103 | 100
8 | O=C(CCCOc1ccccc1)Nc1nncs1 | 104 | 108
12 | O=C(CSc1nnc(NC(=O)C23CC4CC(CC(C4)C2)C3)s1)Nc1nccs1 | 103 | 102

No. | Mtb MbtI inh | Mtb MenB inh
4 | 9 | 22
7 | -3 | 6
8 | . | -8
12 | 0 | -16

Some of the entries above, reformatted:
6) Cc1cc(C)c2c(NS(=O)(=O)c3ccc(Cl)cc3)n[nH]c2n1
  Polio RdRp inh: .; Polio RdRp inh intensity: .; Mtb MbtI inh: 6; Mtb MenB inh: 4
7) O=C(CCn1c(SCc2cccc(F)c2)nc2ccccc2c1=O)NCCc1ccccc1
  Polio RdRp inh: 103; Polio RdRp inh intensity: 100; Mtb MbtI inh: -3; Mtb MenB inh: 6

Carrying on:
No. | Structure | Polio RdRp inh | Polio RdRp inh intensity
13 | CC(C)(C)c1ccc(CCCNCCN2CCNCC2)cc1 | 102 | 107
14 | O=S(=O)(NC1CC1)c1ccc(S(=O)(=O)N(Cc2ccccn2)C2CC2)cc1 | 103 | 104
15 | Cn1c(=S)sc2ccccc21 | 102 | 107
16 | COc1ccc(Cc2nnc(Nc3c(C)cccc3C)o2)cc1OC | 100 | 103
17 | CC1CCCCN1C(=O)Cc1coc2ccc3ccccc3c12 (stereo not given) | 112 | 127
18 | CC(NC(=O)CSc1n[nH]c(=O)n1C1CC1)C12CC3CC(CC(C3)C1)C2 (stereo not given) | 105 | 106
19 | C[N+]1(CC(O)c2ccccc2)CCCCCC1 (stereo not given) | 102 | 106
20 | CNCc1n[nH]c2c1CCCC2 | 101 | 104
21 | CC(=O)NCc1ccc(C(=O)CSc2nc3c(Cl)cc(Cl)cc3[nH]2)o1 | 105 | 107
22 | COc1cccc(Nc2cc(C)c3ccccc3n2)c1 | 102 | 107
23 | CC(C)c1cc(=O)n2[nH]c(N)nc2n1 | 105 | 108
24 | O=C(NCc1ccccc1)N1CCn2cccc2C1c1ccccc1 (stereo not given) | 103 | 103

No. | Mtb MbtI inh | Mtb MenB inh
13 | -7 | -15
14 | -7 | -80
15 | -31 | -10
16 | -8 | -17
17 | -27 | -12
18 | -6 | 2
19 | 10 | -7
20 | -8 | 4
21 | -12 | -14
22 | 112 | -25
23 | . | -5
24 | -4 | -14

Record cards, as listed above. Screens in order: Polio RdRp inh	Polio RdRp inh intensity	Mtb MbtI inh	Mtb MenB inh
Listed for `COc1ccc(Cc2nnc(Nc3c(C)cccc3C)o2)cc1OC` : 100	103	-8	-17
Listed for `C[N+]1(CC(O)c2ccccc2)CCCCCC1` (stereo not given) : 102	106	10	-7
Listed for `CC(NC(=O)CSc1n[nH]c(=O)n1C1CC1)C12CC3CC(CC(C3)C1)C2` (stereo not given) : 105	106	-6	2
Listed for `CN(C)CCOC(c1ccc(Cl)cc1)c1ccccn1` (stereo not given) : 99&99	99&101	5&-23	-6&2
Listed for `CC(=O)NCc1ccc(C(=O)CSc2nc3c(Cl)cc(Cl)cc3[nH]2)o1` : 105	107	-12	-14

The list goes on.
No. | Structure | Polio RdRp inh | Polio RdRp inh intensity
25 | CCC1Sc2ccccc2N(CC(=O)NC2CC2)C1=O (stereo not given) | 104 | 109
26 | Oc1cccc(Nc2nc3ccc(Cl)cc3n3cnnc23)c1 | 105 | 101
27 | Cn1c(=O)[nH]c(=O)c2c1nc(NCCN1CCOCC1)n2CC(O)c1ccccc1 (stereo not given) | 102 | 100
28 | O=c1[nH]ncc(N/N=C\C2CC=CCC2)c1Cl (stereo not given) | 102 | 103
29 | CCOC(=O)C1CCCn2c1nc1sc3c(c1c2=O)CCCC3 (stereo not given) | 103 | 101
30 | CC(C)Cn1cnc2c1c(=O)n(CC(=O)NCc1ccc(F)cc1)c(=O)n2CC(C)C | 100 | 98
31 | O=C(NCc1ccccc1)c1ccccc1NS(=O)(=O)c1ccc(F)cc1 | 102 | 106
32 | COc1ccc(C2=NC(CO)(CO)CO2)cc1 | 99 | 100
33 | S=c1nn[nH]n1C1CCCCCCC1 | 102 | 98
34 | Cc1ccc(Cn2cccc2C2=NC(Cc3ccccc3)CO2)cc1 (stereo not given) | 101 | 100
35 | CNC(=O)c1cc(Cl)ccc1OC | 100 | 102
36 | N#CC(C(=O)C12CC3CC(CC(C3)C1)C2)c1nc2ccccc2[nH]1 (stereo not given) | 101 | 102

No. | Mtb MbtI inh | Mtb MenB inh
25 | -5 | 7
26 | 5 | -22
27 | 2 | 3
28 | 3 | -13
29 | . | 7
30 | 18 | -4
31 | -38 | .
32 | -7 | -8
33 | 46 | -38
34 | -7 | -22
35 | 3 | -3
36 | i | -14

Brought forward from above: five compounds, followed by the next part.
No. | Structure | Polio RdRp inh | Polio RdRp inh intensity
32 | COc1ccc(C2=NC(CO)(CO)CO2)cc1 | 99 | 100
33 | S=c1nn[nH]n1C1CCCCCCC1 | 102 | 98
34 | Cc1ccc(Cn2cccc2C2=NC(Cc3ccccc3)CO2)cc1 (stereo not given) | 101 | 100
35 | CNC(=O)c1cc(Cl)ccc1OC | 100 | 102
36 | N#CC(C(=O)C12CC3CC(CC(C3)C1)C2)c1nc2ccccc2[nH]1 (stereo not given) | 101 | 102
37 | COc1cc(C(=O)n2nc(N)c3cc4ccc(C)cc4nc32)cc(OC)c1OC | 103 | 104
38 | CCOC(=O)N1CCC(NS(=O)(=O)c2ccc3[nH]c(=O)ccc3c2)CC1 | 100 | 100
39 | CCOC(=O)C1=C(c2ccccc2)N(CC(N)=O)C(=O)C12C(C#N)=C(N)Oc1ccccc12 (stereo not given) | 103 | 99
40 | N#CC(C#N)=Cc1sccc1Br | 100 | 94
41 | O=C(COC(=O)CCc1c[nH]c2ccccc12)Nc1cccc2nsnc12 | 100 | 104
42 | COC(=O)c1ccc(C(=O)OC)c(S(=O)(=O)N(C)Cc2ccco2)c1 | 104 | 100
43 | O=C(Cc1ccccc1)NCc1cccs1 | 106 | 108
44 | COCCn1c(C)cc(/C=N/n2c(C)nc3ccccc3c2=O)c1C | 104 | 105
45 | CCCNC(=O)c1ccc(NC(=O)N2CCSc3nc(C)cc(C)c32)cc1 | 101 | 100
46 | COc1ccc(C2C3=C(CCCC3=O)Nc3nc4ccccc4n32)cc1 (stereo not given) | 101 | 104
47 | CC(=O)Nc1c(I)cc(I)c(C(=O)O)c1I | 98 | 102
48 | COc1ccc(-c2oc3ncn(Cc4ccccc4)c(=N)c3c2-c2ccc(OC)cc2)cc1 | 104 | 109

No. | Mtb MbtI inh | Mtb MenB inh
32 | -7 | -8
33 | 46 | -38
34 | -7 | -22
35 | 3 | -3
36 | i | -14
37 | -6 | -30
38 | 22 | -4
39 | -7 | -43
40 | -3 | -11
41 | -10 | -34
42 | -12 | -18
43 | 4 | -14
44 | -2 | 2
45 | -16 | 3
46 | -9 | -9
47 | -7 | -6
48 | -8 | -19

The list continues.
No. | Structure | Polio RdRp inh | Polio RdRp inh intensity
49 | O=C(N/N=C1\CCc2ccccc21)c1cc(-c2ccco2)nc2ccccc12 | 101 | 101
50 | CCN(CC(=O)N1CCc2ccccc2C1)S(=O)(=O)c1ccc(OC)cc1 | 103 | 103
51 | Cc1ccccc1NC1SC(=O)N(Cc2ccccc2)C1=O (stereo not given) | 102 | 95
52 | Cc1ccccc1CN | 103 | 115
53 | COc1ccc(OC)c2sc(NC(=O)c3ccc4ncsc4c3)nc12 | 99 | 101
54 | CC1CN(C(=O)CC(c2ccccc2)c2ccccc2)CC(C)O1 (stereo not given) | 101 | 97
55 | Cc1ccc(C(=O)/C=C/Sc2nccc(C)n2)cc1 | 99 | 101
56 | CCOC(=O)c1c(C)n(Cc2ccccc2)c2ccc(OCC(O)CNC(C)(C)C)cc12 (stereo not given) | 103 | 100
57 | COc1ccc(CC#N)cc1 | 106 | 106
58 | O=C(Nc1cccnc1)c1ccc(Br)o1 | 100 | 113
59 | CNC(=O)CC1C(=O)N(C)C(=S)N1NC(=O)c1ccc(Cl)cc1 (stereo not given) | 97 | 101
60 | NC(=O)/C(=C\c1ccco1)NC(=O)c1ccco1 | 99 | 102

No. | Mtb MbtI inh | Mtb MenB inh
49 | -3 | -12
50 | -12 | -5
51 | 3 | 0
52 | -16 | 3
53 | 7 | -19
54 | -3 | -16
55 | 26 | 5
56 | -3 | -4
57 | 0 | -16
58 | . | -7
59 | 15 | 12
60 | 31 | 14

Additional structures follow.
No. | Structure | Polio RdRp inh | Polio RdRp inh intensity
61 | CCOC(=O)C1=NOC2C(=O)N(c3ccc(Cl)cc3)C(=O)C12 (stereo not given) | 99 | 101
62 | COc1ccc(NC(=O)C(Cc2ccccc2)NC(=O)c2ccco2)cc1OC (stereo not given) | 100 | 100
63 | O=C(N/N=C/c1cccnc1)c1nc2ccccc2c(=O)[nH]1 | 95 | 105
64 | CN(C)S(=O)(=O)c1cccc(-c2nnc3n2CCCCC3)c1 | 100 | 99
65 | O=c1[nH]cc(COCC(F)(F)C(F)F)c(=O)[nH]1 | 102 | 99
66 | N#Cc1c(NC(=O)CSc2ncccn2)sc2c1CCCC2 | 95 | 105
67 | CC(CN1CCOCC1)OC(=O)C(C)(c1ccccc1)c1ccccc1 (stereo not given) | 102 | 104
68 | CN1/C(=C\C(=O)CN2CCc3ccccc3C2)C(C)(C)c2ccccc21 | 111 | 113
69 | CC1C/C(=C/c2cccn2C)C(=O)/C(=C/c2cccn2C)C1 (stereo not given) | 76 | 193
70 | COc1ccc(CC(=O)NCCSc2c(-c3ccccc3)[nH]c3ccccc23)cc1OC | 104 | 104
71 | O=C(CSc1nc2ccccc2[nH]1)n1c2ccccc2c2ccccc21 | 104 | 98
72 | CC(CNC(=O)c1csc2c1CCCC2)c1ccccc1 (stereo not given) | 102 | 105

No. | Mtb MbtI inh | Mtb MenB inh
61 | 4 | -14
62 | 0 | -4
63 | 19 | -1
64 | 4 | 9
65 | -16 | -16
66 | 6 | -20
67 | 0 | 17
68 | -18 | -13
69 | 28 | -97
70 | 107 | -39
71 | 2 | 7
72 | -11 | -2

Other records follow.
No. | Structure | Polio RdRp inh | Polio RdRp inh intensity
73 | N#Cc1c(NC(=O)NCc2ccco2)sc2c1CCC2 | 100 | 100
74 | CC(C)Nc1ncnc2onc(-c3ccc(F)cc3)c12 | 103 | 105
75 | COc1ccc(C2=NN(C(=O)COc3ccccc3C(N)=O)C(c3ccco3)C2)cc1 (stereo not given) | 103 | 106
76 | CCN(CC)S(=O)(=O)c1ccc(NC2CCN(Cc3ccccc3)CC2)nc1 | . | .
77 | O=C1C(=O)N(CCCn2ccnc2)C(c2ccc(Cl)cc2)/C1=C(\O)c1ccc(F)cc1 (stereo not given) | 102 | 101
78 | O=C(/C=C/c1ccco1)C1C(=O)c2ccccc2C1=O | 105 | 100
79 | Cc1ccc(O)c(-c2cc(C(F)(F)C(F)(F)F)nc(-c3ccccc3)n2)c1 | 103 | 107
80 | CS(=O)(=O)c1cccc(S(=O)(=O)NCc2cccnc2)c1 | 101 | 102
81 | O=C(CSc1ccccc1)NC1CC1 | 103 | 103
82 | COc1ccc(C2(C(=O)NCc3ccco3)CCCC2)cc1OC | 102 | 105
83 | CN(Cc1ccccc1)C(=O)C1CCN(c2nc3cccnc3s2)CC1 | 100 | 101

No. | Mtb MbtI inh | Mtb MenB inh
73 | -8 | -3
74 | -23 | -22
75 | 26 | -9
76 | 22 | -4
77 | -8 | .
78 | 69* | -72
79 | -14 | 7
80 | 11 | 18
81 | -16 | .
82 | -10 | -3
83 | 20 | -10
